Compound activity (PubChem)
FGF22 binding – binders of human FGF22 protein, primary screen, FGF22 synaptogenesis inhibitor project, biophysical, thermal shift, single point | recombinant FGF22 thermal shift, SYPRO orange fluorescence; percent of sucrose octasulfate shift, DMSO zero | calls only at 9.99 µM | 1.5% of 340,000 active | AID 651658, 2012;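 active = melting point raised past a set limit in the mean and every replicate; three in four hits are not shown here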
ALR inh – inhibitors of human ALR sulfhydryl oxidase, primary screen, biochemical, H2O2 detection, HRP-luminol luminescence, single point; purified ALR, DTT oxidation; AID 485317, 2010; inhibition, % (concentration not given with the values); 3.8% of 290,000 active;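 active = mean and each replicate at 75% or more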;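 note: stock transfer was 7.5 nL into about 7.5 µL; 0% = neutral wells and 100% = wells with inactivated enzyme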
Target sequence (P55789 whole entry, looked up): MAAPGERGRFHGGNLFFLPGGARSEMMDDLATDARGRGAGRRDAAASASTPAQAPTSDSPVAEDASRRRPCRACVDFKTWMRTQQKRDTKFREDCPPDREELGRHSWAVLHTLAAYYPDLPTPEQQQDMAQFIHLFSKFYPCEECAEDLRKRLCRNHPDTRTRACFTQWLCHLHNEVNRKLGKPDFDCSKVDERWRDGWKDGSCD
HNF4A DNA FP – change in binding of human HNF4A to DNA, primary screen, biochemical, fluorescence polarization, FITC-DNA | Hepatocyte nuclear factor 4-alpha (Homo sapiens), P41235 | 1 h | activity change, % at 10 µM | 0.3% of 360,000 active | AID 1224865, 2016; in the data active = activity change above about 30%, passing the limit was not always enough;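 note: controls were the assay level and a saturating level of protein; the project sought stronger binding though the title names inhibitors; some compounds called inactive have numbers as strong as hits; positive values seem to mean higher polarization but the record does not say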
Target sequence (P41235 whole entry, looked up): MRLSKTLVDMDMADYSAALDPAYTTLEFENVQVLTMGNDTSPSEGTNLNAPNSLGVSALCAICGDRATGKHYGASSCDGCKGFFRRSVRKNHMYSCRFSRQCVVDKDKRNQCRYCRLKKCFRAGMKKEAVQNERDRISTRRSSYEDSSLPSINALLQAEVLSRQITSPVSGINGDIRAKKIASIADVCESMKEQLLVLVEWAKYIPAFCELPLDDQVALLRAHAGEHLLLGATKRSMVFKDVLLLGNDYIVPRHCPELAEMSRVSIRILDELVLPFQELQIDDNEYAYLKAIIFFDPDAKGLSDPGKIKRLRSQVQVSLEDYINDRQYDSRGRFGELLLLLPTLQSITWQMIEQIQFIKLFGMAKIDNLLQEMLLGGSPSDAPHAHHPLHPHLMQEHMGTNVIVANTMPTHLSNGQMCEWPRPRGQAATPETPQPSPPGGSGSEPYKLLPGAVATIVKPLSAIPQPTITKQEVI
E coli growth – E. coli growth inhibition, primary screen, OD600. Escherichia coli growth, 23 h; hits give low values. OD600 absorbance (test concentration not listed). 0.21% of 330,000 active. AID 1053175, 2014;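 active = OD600 absorbance below the run mean of sample wells minus 3.6 SD, in any replicate, cut at about 0.56 in these data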;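 note: stock transfer was 300 nL into about 60 µL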
UCH37 DUB inh – inhibitors of human UCH37 deubiquitinase, primary screen, biochemical, Ub-AMC cleavage, fluorescence; inhibition, % (no concentration beside the values); AID 588478, 2011; purified proteasome/UCH37; Ubiquitin carboxyl-terminal hydrolase isozyme L5 (Homo sapiens), Q9Y5K5; 0.33% of 330,000 active;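 active = mean of two replicates above 20%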;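 note: 0% = compound-free wells with enzyme and 100% = wells lacking proteasome; stock transfer was 100 nL into about 20 µL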
Target sequence (Q9Y5K5 whole entry, looked up): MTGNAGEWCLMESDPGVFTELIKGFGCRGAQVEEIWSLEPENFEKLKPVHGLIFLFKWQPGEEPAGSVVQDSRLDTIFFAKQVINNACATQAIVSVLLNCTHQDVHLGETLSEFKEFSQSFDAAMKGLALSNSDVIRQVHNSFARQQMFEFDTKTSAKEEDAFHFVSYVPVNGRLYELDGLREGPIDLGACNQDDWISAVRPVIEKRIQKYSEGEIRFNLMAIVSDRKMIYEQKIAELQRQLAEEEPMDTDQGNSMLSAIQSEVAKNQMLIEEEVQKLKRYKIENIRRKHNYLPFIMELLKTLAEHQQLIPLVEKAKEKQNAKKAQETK
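system = Proteasome-associated human UCH37 deubiquitinase | amount = 0.15 nM proteasome as dispensed | medium = pH 7.4 Tris-HCl (50 mM) with ovalbumin, ATP-MgCl2, DTT | incubation = 30 min preincubation with enzyme, 25 min cleavage at room temperature | detection = AMC fluorescence 355/460 nm | read-out basis = percent inhibition | controls = no-proteasome and no-compound wells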
B2AR ag – beta2AR agonists driving receptor internalization, primary screen, cell-based, FAP fluorogen, flow cytometry | Beta-2 adrenergic receptor (Homo sapiens), P07550 | Am2.2-beta2AR cells; reference of the scale not given here | response, % (concentration not given with the values) | 0.43% of 340,000 active;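 active = response above a set limit, near 3 SD of response in nonfluorescent compounds, cut at about 42% in these data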;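 note: stock transfer was 100 nL into about 11 µL; a reference agonist was the positive control; negative values mostly stem from fluorescent compounds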
Ecoli rRNA inh – reduced GFP signal of wild-type E. coli, primary screen, bacterial rRNA inhibitor project, GFP/RFP fluorescence, OD600, single point | E. coli WT GFP vs humanized-ribosome RFP mutants, 24 h; hits give low values; DMSO median 0, no signal -100 | GFP signal change (wild-type ribosome), % (concentration not given with the values) | 1.6% of 350,000 active;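 active = significant combined selectivity score with lowered wild-type GFP, culture density cut under 30%, mutant RFP and density less affected; inactive = any of these conditions unmet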; note: one replicate is shown; some compounds called inactive have numbers as strong as hits
Ecoli rRNA inh OD600 – also measured in Ecoli rRNA inh; calls as there; OD600 change, %; measured here: OD600 growth;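 optical density of the mix in the first replicate; 0 = DMSO median and -100 = no signal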
Ecoli rRNA inh RFP – further read-out of Ecoli rRNA inh, marked with its call; RFP signal change, %; measured here: RFP humanized mutant strains;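 first replicate; 0 = DMSO median and -100 = no signal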
Numbers without * were called inactive; i = inactive; · = no result given; & = joins results of further samples. These rows are one share of the data (hit frequency here may not be typical).

Below each compound: FGF22 binding | ALR inh | HNF4A DNA FP | E coli growth | UCH37 DUB inh | B2AR ag | Ecoli rRNA inh | Ecoli rRNA inh OD600 | Ecoli rRNA inh RFP
#1 CCN(CC)c1ccc(S(=O)(=O)N2CCCCC2)cc1NC(=O)C1CCC1
  i | -5 | -3.9 | 0.67 | 3.6 | -3 | -16 | -41 | 0.3
#2 COc1cc(/C=C(\C#N)C(=O)NCC2CCCO2)ccc1OCC(N)=O (stereo unspecified)
  i | 95* | 4.7 | 0.73 | 4.6 | 0 | -3 | 1 | -0.2
#3 COc1ccc(N(CC(=O)N/N=C/c2cccnc2)S(=O)(=O)c2ccc(C)cc2)cc1OC
  i | -9 | -0.2 | · | · | -14 | 15 | 12 | 4.4
#4 COc1ccc(CNC(=O)CSc2nnc3c(n2)[nH]c2ccccc23)cc1
  i | -5 | 1.4 | 0.69 | 0.2 | -4 | 8 | 10 | -2.5
#5 COc1cc(C(=O)Nc2cc(C)c(OCC(=O)N3CCOCC3)c(C)c2)cc(OC)c1OC
  · | -7 | 2.8 | 0.71 | 2.3 | 3 | · | · | ·
#6 CC(=O)c1cccc(NC(=O)c2ccc(S(=O)(=O)N3CCCCC3)cc2)c1
  · | -39 | 0.4 | 0.75 | -0.1 | 2 | · | · | ·
#7 Cc1ccc(SCCCn2cncn2)cc1
  · | -10 | 1.7 | 0.71 | 1.3 | 0 | · | · | ·
#8 CN(C)S(=O)(=O)c1ccc(C(=O)OCC(=O)c2ccc(OC(F)F)cc2OC(F)F)cc1
  · | 0 | -2.5 | 0.71 | 4.1 | -5 | · | · | ·
#9 N#Cc1c(N)nc2c(c1N)CC(CO)O2 (stereo unspecified)
  · | -9 | -0.1 | 0.75 | -5.4 | 3 | · | · | ·
#10 CCOC(=O)c1ccc(N2C(=O)c3n[nH]c(C)c3C2c2ccc(OC)cc2OC)cc1 (stereo unspecified)
  · | -4 | -2.0 | 0.73 | 4.3 | -24 | · | · | ·
#11 C[C@]12C=CC(=O)C=C1CCC1C2CC[C@@]2(C)C1CCC21OCCO1 (stereo partly specified)
  i | -2 | 3.5 | 0.73 | 1.7 | -5 | -33 | -47 | -7.5
#12 C=CC[n+]1c(-c2ccc(OCC)cc2)csc1NNC(=O)Nc1ccccc1
  · | 3 | -0.7 | 0.71 | 4.1 | 3 | · | · | ·
#13 O/N=C1/CCCCc2sccc21
  · | -1 | 2.1 | · | · | 5 | · | · | ·
#14 Cc1cc(C(=O)CN2CCN(CC(=O)Nc3ccc(F)cc3)CC2)c(C)n1C1CC1
  i | 12 | -4.9 | 0.64 | 3.6 | -8 | 13 | 15 | 2.7
#15 CN(CCOc1ccc(Cl)cc1)C(=O)CNS(=O)(=O)c1ccc(N(C)C)c([N+](=O)[O-])c1
  i | · | 3.3 | 0.69 | 5.3 | -12 | 1 | -2 | 1.0
#16 O=C(Cn1nc(-c2ccco2)ccc1=O)Nc1cc(C(F)(F)F)ccc1Cl
  i | 2 | 1.8 | 0.7 | -53 | -5 | -3 | -11 | 5.3
#17 CN(C(=O)c1ccccc1Br)C1CCS(=O)(=O)C1 (stereo unspecified)
  i | -3 | -0.5 | 0.67 | 3.3 | 14 | 7 | 7 | -0.3
#18 COc1ccc(CC(N)c2csc(NC(=O)c3ccc(OC)cc3)n2)cc1 (stereo unspecified)
  i | · | 6.1 | · | · | · | -6 | -22 | 9.5
#19 CC(=O)N(C(C)=O)c1c(C#N)c(C)n(-c2ccccc2)c1C(=O)c1ccccc1
  · | 7 | 1.3 | 0.79 | 4.0 | 7 | · | · | ·
#20 CCOc1ccc(S(=O)(=O)n2ccc(C)n2)c2ccccc12
  · | -1 | -0.3 | 0.71 | 1.0 | -10 | · | · | ·
#21 C=CCc1cc(Cl)ccc1OCCn1ccnc1
  i | -7 | 3.9 | 0.65 | 0.8 | -3 | -34 | -66 | -0.9
#22 CC(C)(C)c1ccc(S(=O)(=O)NCCOCC(F)(F)C(F)F)cc1
  i | -3 | -2.8 | 0.67 | 5.6 | 10 | -1 | 6 | 2.6
#23 COc1ccccc1CNC(=O)c1ccc2nc(N3CCOCC3)sc2c1
  i | · | 2.0 | 0.71 | 8.7 | -7 | -9 | -18 | -1.5
#24 CCCN[C@H]1CCc2nc(N)sc2C1
  i | -21&4 | -4.1 | · | 2.3&0.0 | 9 | · | · | ·
#25 O=C(O)CCC(=O)NC(c1ccccc1)c1ccccc1
  i | -10 | -1.1 | 0.7 | 1.6 | -6 | 5 | 8 | -3.3
#26 Nc1ncnc(N)c1NC(=O)c1ccc(OCc2ccccc2)cc1
  i | · | -3.5 | · | · | · | -2 | 10 | -6.1
#27 CN(C)/C=C/C(=C\C(=O)C(F)(F)F)Nc1ccc(C(F)(F)F)cc1
  i | -2 | -0.6 | 0.67 | 6.9 | 19 | -5 | -2 | -8.2
#28 CCOC(=O)N1CCC(=NNC(=O)c2cc3ccccc3cc2O)CC1
  · | · | 0.7 | 0.65 | -2.1 | 3 | · | · | ·
#29 O=C(NC1CCN(S(=O)(=O)c2cccc(F)c2)CC1)c1ccc(F)cc1
  i | 8 | -0.7 | 0.63 | 5.3 | -3 | 20 | 9 | 1.9
#30 COc1ccccc1Nc1nc2ccccc2[nH]1
  · | 40 | 0.2 | 0.76 | 1.4 | -10 | · | · | ·
#31 Cc1ccnc(NS(=O)(=O)c2ccc(N3C(=O)Nc4ccccc4N3O)cc2)c1
  i | · | 1.0 | 0.67 | -1.4 | 3 | 13 | 19 | 2.4
#32 CC(C)(C)c1cc(C(=O)NNC(=O)Nc2cccc(Cl)c2)n(Cc2ccccc2)n1
  i | 5 | 1.7 | 0.65 | 8.5 | 4 | · | · | ·
#33 CC(=O)Nc1nc(C)c(Oc2ccc(Cl)cc2Cl)c(=O)[nH]1
  · | -5 | 1.3 | 0.7 | -0.5 | -2 | · | · | ·
#34 O=S(=O)(SC1=NCCN1)c1ccccc1
  i | · | 0.2 | · | · | 1 | 1 | 4 | -1.1
#35 Cc1ccc(S(=O)(=O)Nc2csc(C)c2C(=O)O)cc1
  · | 18 | · | 0.71 | 3.7 | 3 | 0 | 3 | -1.7
#36 CCc1c(O)cc(=O)n(-c2ccccc2)c1-c1ccccc1
  i | 2 | -4.6 | 0.69 | -4.8 | 0 | 2 | -8 | -2.8
#37 COc1ccc(CC(=O)Nc2ccc(N3CCCCC3)cc2)cc1
  i | 14 | 5.7 | 0.72 | 6.1 | 2 | 2 | 13 | 14
#38 O=S(=O)(Cc1ccccc1)NCC1CCCO1 (stereo unspecified)
  · | -16 | 2.1 | 0.6 | 0.4 | -5 | · | · | ·
#39 CCc1ccc(NC(=O)CNC(=O)c2cn(-c3ccccc3OC)c(=O)c3ccccc23)cc1
  · | -28 | 2.5 | 0.67 | -1.3 | 6 | · | · | ·
#40 COC(=O)[C@H]1C[C@@H](c2ccccc2)[C@H](C)C1(C)C
  i | -9 | 0.4 | · | 2.2 | 0 | 10 | 6 | 10
#41 CCN1CCN(Cc2cccc(Oc3ccc(Cl)cc3)c2)CC1
  i | -6 | -3.0 | 0.65 | 4.3 | 10 | -13 | -21 | 8.3
#42 CC(=O)c1cccc(N(CC(=O)NC2CCCC2)C(=O)CNC(=O)c2cccs2)c1
  i | 0 | 1.7 | 0.67 | -1.2 | -6 | 4 | 0 | 3.1
#43 N#Cc1c(SCC(=O)Nc2nccs2)nc2c(c1-c1ccco1)CCCC2
  · | 60 | 6.2 | 0.71 | 1.9 | 3 | · | · | ·
#44 CCCC(C)C(=O)Nc1cc(S(=O)(=O)N2CCCCC2)ccc1N1CCOCC1 (stereo unspecified)
  i | -3 | 3.9 | 0.69 | -2.5 | 1 | -6 | -2 | -1.8
#45 O=C(Nc1ccncc1)c1cc(-c2ccccn2)nc2ccccc12
  · | · | 0.9 | 0.7 | -7.3 | -9 | 7 | 10 | 0.3
#46 Cc1cccc(NC(=O)c2ccc(S(=O)(=O)N3CCOCC3)cc2)n1
  i | -12 | 3.2 | 0.69 | 0.8 | 2 | 19 | 16 | 3.4
#47 CCC(=O)Nc1ccc(-c2csc(C)n2)cc1
  i | 2 | 0.4 | 0.66 | -2.1 | -9 | 16 | 6 | 0.7
#48 [O-]/[N+](=C\c1ccccc1)c1ccccc1
  i | 0 | 2.3 | · | 0.7 | -3 | 15 | 12 | 3.3
#49 COc1ccc(-c2c(C(=O)c3ccccc3)[nH]c(N)c2C(=O)NC2CC2)cc1OC
  i | · | 0.9 | · | · | · | 1 | -11 | -3.2
#50 O=c1cc(CSc2nnnn2-c2ccccc2)[nH]c2[nH]n(-c3ccccc3)c(=O)c12
  · | 58 | -5.3 | 0.77 | 12 | 14 | · | · | ·
#51 COc1ccc(N(CC(=O)NCC2CCCO2)C(=O)CCC(=O)Nc2nccs2)cc1 (stereo unspecified)
  · | 4 | -1.7 | 0.69 | 2.7 | -1 | · | · | ·
#52 CCOc1ccc(OCC(=O)Nc2ccc(OC)cc2)cc1
  · | -6 | -1.9 | 0.69 | 3.3 | 0 | · | · | ·
#53 CCOC(=O)C[N+](CC)(CC)CC#Cc1ccccc1
  · | -2 | 3.8 | 0.68 | -2.9 | 0 | · | · | ·
#54 CCCC[C@@H]1Cc2[nH][nH]c(=O)c2[C@H](c2cccc3ccccc23)O1
  i | · | -1.9 | · | · | · | -15 | -27 | -6.8
#55 O=C(c1ccco1)N1CCN(C(c2ccccc2Cl)c2nnnn2CC2CCCO2)CC1 (stereo unspecified)
  · | -1 | 0.1 | 0.76 | 0.2 | -1 | · | · | ·
#56 CCN(CC)S(=O)(=O)c1ccc2c(c1)nc(CCC(=O)Nc1ccc3c(c1)OCO3)n2C
  · | -22 | 1.2 | 0.69 | -0.2 | 11 | · | · | ·
#57 CC(=O)Nc1ccc(NC(=O)C2CC(=O)N(Cc3ccccc3)C2)cc1 (stereo unspecified)
  · | · | 4.3 | 0.71 | 1.3 | -3 | 10 | 12 | -5.3
#58 CCN(CCn1cccn1)C(=O)CC1C(=O)NCCN1CC1CCCCC1 (stereo unspecified)
  i | -9 | -2.1 | · | · | -3 | 11 | 7 | -1.3
#59 CC(=O)c1c(C)[nH]c(C(=O)OCC(=O)NCc2cccs2)c1C
  i | · | 3.2 | 0.62 | 3.1 | 6 | -11 | -20 | 2.0
#60 O=C(c1ccco1)N1CCN(C(=O)c2cc(-c3ccccc3F)no2)CC1
  i | -13 | 0.1 | 0.66 | 2.4 | -7 | -2 | -3 | 1.0
#61 C[C@H](CO)N1C[C@H](C)[C@H](CN(C)Cc2cccc(C(F)(F)F)c2)OCc2ccccc2-c2c(n(C)c3ccccc23)C1=O
  i | · | -5.5 | · | · | · | 5&0 | 9&-1 | -1.7&-0.2

Records listed so far that bear a hit mark in ALR inh:
| nr | SMILES | FGF22 binding | ALR inh | UCH37 DUB inh | B2AR ag | Ecoli rRNA inh | Ecoli rRNA inh OD600 | Ecoli rRNA inh RFP |
| --- | --- | --- | --- | --- | --- | --- | --- | --- |
| 2 | COc1cc(/C=C(\C#N)C(=O)NCC2CCCO2)ccc1OCC(N)=O (stereo unspecified) | i | 95* | 4.6 | 0 | -3 | 1 | -0.2 |
